# Bioassay records (PubChem)
# ugtP null kill: growth inhibition of S. aureus ugtP deletion strain | S. aureus RN4220 ugtP deletion, OD600 growth, 16 h; some inactives read as strong as hits | growth inhibition, % (no concentration beside the values) | 330,000 compounds, 0.54% hits;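 active means z-score under -3 and OD600 up to 0.15 on both plates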;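 further: plate controls were untreated wells for no effect and antibiotic for full effect; wells of about 80 µL received 100 nL stock; the first replicate is given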
# PrP UTR inh: inhibition of PrP 5' UTR reporter expression | cell-based PrP 5' UTR mRNA reporter, plate reader | inhibition, % (concentration not given with the values) | 340,000 compounds, 0.35% hits;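 active means every replicate at 50% or more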;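 further: 0 = median of the neutral control wells; tested in H4 reporter cells; numbers are from one replicate; inactives centre near -14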
# Autofluor counter: compound fluorescence in toxin protease inhibitor counterscreen; 360,000 compounds, 3.1% hits; compound autofluorescence counterscreen, microsphere flow cytometry; stronger effect = higher value; fluorescence intensity (no concentration beside the values); AID 624483;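 active means at least 3 SD above the mean of all compounds, about 16000 in these data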;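 further: 100 nL of 1 mM stock went into each well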
# Mtb hypoxia rep: Mtb hypoxia fluorescent reporter inhibition. M. tuberculosis hypoxia-regulated fluorescent reporter, fluorescence. fluorescence inhibition, % (concentration not given with the values). 300,000 compounds, 0.1% hits;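 active means 35 to 45% if threefold the growth effect, above 45% if 1.5-fold the growth effect; inactive means the rest, general growth blockers included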;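 further: wells of about 50 µL received 100 nL stock; 0% = vehicle wells and 100% = reference inhibitor wells; whole bacteria with a GFP reporter of the hypoxia response; strong numbers were not always called active; many hits fall short of the cut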
# BJeLR viability: BJeLR cell viability loss | BJeLR (HRASV12) viability, CellTiter-Glo ATP luminescence, 48 h; reference of the scale not given here | inhibition, % (test concentration not listed) | 300,000 compounds, 0.17% hits | AID 1554;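 active means replicate mean above 50%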;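 further: 50 nL library stock added to about 25 µL; numbers are from one replicate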
# RN4220 kill: kills Staphylococcus aureus RN4220. S. aureus RN4220 growth, OD600, 16 h. inhibition, % (test concentration not listed). 330,000 compounds, 0.33% hits;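 active means z-score of -3 or lower and OD600 up to 0.18 on both plates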;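 further: plate controls were untreated cells for no effect and reference antibiotic for full effect; stock transfer was 100 nL into about 80 µL; one replicate is shown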
# Mtb hypoxia rep growth: also measured in Mtb hypoxia rep; calls as there; growth inhibition, %; measured here: M. tuberculosis growth (absorbance);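 0% = vehicle and 100% = reference antibiotic; read after six days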
# * = called active by the depositor; . = no result given.
# Below each SMILES: ugtP null kill	PrP UTR inh	Autofluor counter	Mtb hypoxia rep	Mtb hypoxia rep growth	BJeLR viability	RN4220 kill
> C=CCOc1ccc(CN(C)CC(=O)Nc2ccccc2[N+](=O)[O-])cc1
 : 12	-23	4181	7	6	6	17
> COc1ccc(CNC(=S)Nc2ccc(-c3ccccc3)cc2)cc1
 : 1	-17	3220	10	10	3	4.3
> O=C(CNC(=O)c1ccco1)OCC(=O)c1ccc2ccccc2c1
 : -2	-21	3916	13	18	-15	3.4
> CC[C@]12c3[nH]c4cc(CCC(=O)N(C)C)ccc4c3CCN1C(=O)[C@@H](CC(=O)NCCCOC)C[C@@H]2C(=O)N1CCN(C(=O)C2CC2)CC1
 : 14	-15	3513	1	-1	.	6.0
> CCCc1cc(Nc2cccc(OCC)c2)n2ncnc2n1
 : -14	-6	10725	-9	15	-1	1.0
> Cc1ccc(S(=O)(=O)N(C)c2ccc(C(=O)N3CCN(Cc4ccc5c(c4)OCO5)CC3)cc2)cc1
 : -6	-18	7589	-3	6	7	0.0
> Cc1ccc(N2C(=O)C3Sc4[nH]c(=O)sc4C(c4ccccc4)C3C2=O)cc1 (stereo unspecified)
 : -8	-21	2879	16	7	.	-4.2
> COC(=O)C[C@H]1c2ccccc2S(=O)(=O)N1c1cccc(OC)c1
 : .	-11	2841	.	.	0	.
> COc1ccc(NC(=O)C#Cc2ccccc2)cc1
 : 7	-70	3525	6	4	-7	-1.5
> COc1ccc(C(=O)/C=C/Nc2ccccn2)c(OC)c1
 : 11	.	4336	19	5	-4	3.2
> O=C(N/N=C1\CCS(=O)(=O)c2ccc(F)cc21)c1ccc(O)cc1
 : .	-3	3823	.	.	-6	.
> CCCc1ccc(S(=O)(=O)N2CCN(C(C)C(=O)NC3CCCC3)CC2)cc1 (stereo unspecified)
 : 7	-29	5232	-1	-7	.	-1.0
> N#Cc1ccc(C(=O)Nc2cccc(S(=O)(=O)NC3=NCCC3)c2)cc1
 : 5	.	.	8	1	.	4.9
> CCOc1ccc(NC(=O)C2=C(C)C(=O)OC23CCC(C)CC3)cc1 (stereo unspecified)
 : 2	-2	7965	5	9	0	-8.9
> c1ccc2c(c1)ncn2Cc1nnc2sc(-c3ccc4c(c3)OCO4)nn12
 : 9	-16	3066	9	7	5	6.1
> O=C(c1cccc(C(F)(F)F)c1)C1CCCN(C(=O)CN2CCCC2=O)C1 (stereo unspecified)
 : 9	-8	5038	14	-4	.	5.2
> O=S(=O)(NCc1csc(-c2cccs2)n1)c1cccc(C(F)(F)F)c1
 : -11	-13	6291	-3	3	-6	6.7
> C(=C\c1ccco1)/C=N/n1cnnc1
 : .	-9	3337	.	.	0	.
> Cc1ccc(-c2nn(-c3ccccc3)cc2NC(=O)c2ccccc2)cc1
 : 22	-12	9960	1	-2	0	18
> COc1ccc(OC(=O)c2cccc(S(=O)(=O)N3CCCC3)c2)cc1
 : 7	1	24453*	4	12	2	2.7
> Cc1ccc(S(=O)(=O)N2CCN(C(=O)NCc3ccc(C(=O)O)cc3)CC2)cc1
 : -4	-11	5711	-7	3	-5	6.7
> CCOc1ccc(NC(=O)N(CCC(C)C)C2CCN(C(C)=O)CC2)cc1
 : 7	-13	8244	0	-1	1	1.4
> CCC(=NNc1cccc(Cl)c1)c1cnnc(SC)n1
 : 15	.	.	7	2	.	3.9
> CC(C)C[C@@H](C(=O)NCc1ccco1)N1C(=O)N2CCc3c([nH]c4ccccc34)[C@@]2(C)C1=O
 : -5	-11	5060	.	.	-13	0.1
> Nc1cc(=O)[nH]c(SCC(=O)Nc2ccc3c(c2)CCC3)n1
 : 4	-12	4265	10	2	-14	10
> O=C(CSc1nnc(-c2ccc(Br)cc2)n1C1CCCCC1)N1CCCC1
 : -5	-21	4128	10	4	1	5.2
> Nc1nnnn1N=Cc1ccccc1OCc1ccc(Cl)cc1Cl
 : -28	.	.	6	6	.	6.2
> COc1cc2oc(-c3ccc(O)cc3)cc(=O)c2c(O)c1OC
 : 6	-16	5027	.	.	-25	11
> CC(C)(C)c1ccc(/C=C2\Oc3cc(OC(=O)N4CCOCC4)ccc3C2=O)cc1
 : 1	-16	2521	3	2	-5	-0.2
> Fc1ccc(-c2cc(C(F)(F)F)nc(-n3cccn3)n2)cc1
 : 1	-5	4886	-6	-9	4	-8.2
> COc1ccc(C(=O)CSc2nc(SC)ns2)cc1OC
 : -3	-33	4945	.	.	-1	1.4
> COC(=O)c1ccc(C(=O)OC)c(NC(=O)CCC(=O)O)c1
 : 1	-21	13260	3	6	-11	6.1
> Fc1cnc(Cl)nc1NC1CCCCC1
 : -7	-3	3501	11	4	1	2.5
> CCOc1cc2c3c(c1)C1(Nc4ccccc4S1)C(=O)N3C(C)(C)CC2C (stereo unspecified)
 : -11	8	23624*	5	7	-14	-2.9
> CCOc1cc(/C=C2\C(=N)N3N=C(C)SC3=NC2=O)ccc1OCCOc1cccc(OC)c1
 : -13	-6	4315	-3	6	0	0.5
> CCN(CC)S(=O)(=O)c1cccc(NC(=O)COc2ccc(F)cc2Br)c1
 : -1	-9	4227	7	4	-1	7.2
> O=C(O)c1ccc(CNCc2cccc(Cl)c2)cc1
 : 11	-24	2223	5	-1	4	4.9
> O=C(Nc1ccc2oc(-c3ccccc3F)nc2c1)c1ccc2c(c1)OCCO2
 : 0	-25	13176	-2	9	6	-1.0
> CC(C)CCn1c(=O)c2ccccc2c2ccccc2c1=O
 : 76	-4	2628	.	.	-3	-6.0
> O=C(Cn1c(C2CC2)nc2ccccc2c1=O)Nc1ccc(Br)cc1
 : -12	3	9714	5	3	1	0.6
> CC1CC1C(=O)OCc1cc(=O)n2cc(Br)ccc2n1 (stereo unspecified)
 : 6	-70	3268	17	7	-1	5.7
> O=S(=O)(Cc1ccccc1)c1nc2ccccc2n1Cc1ccccn1
 : 5	-6	3268	-6	0	-13	8.7
> COc1cccc(CNS(=O)(=O)c2csc(C(N)=O)c2)c1
 : 0	-19	5437	0	2	5	0.8
> O=C(NCC1CCCN(C(=O)CN2CCCCC2)C1)c1ccccc1Cl (stereo unspecified)
 : 2	-11	3754	5	9	-3	2.1
> O=C(Nc1cc(C(F)(F)F)ccc1N1CCCCC1)c1ccc(Br)o1
 : 9	-3	4605	6	-3	0	14
> O=C(Nc1cccc(NC(=O)c2ccc(Br)cc2)c1)c1ccccc1
 : -5	-16	3870	18	9	-13	7.1
> COC(=O)Cc1c[nH]c2ccc(OCC(O)CNC(C)C)cc12 (stereo unspecified)
 : 7	-31	7184	8	-2	-9	2.7
> CCCCN(C(=O)CCC(=O)Nc1cc(C)on1)C(C(=O)NC(C)(C)C)c1ccccc1Cl (stereo unspecified)
 : 1	-18	3562	1	7	-3	0.5
> Cc1ccc(C(=O)Nc2nnc(S(=O)(=O)N3CCC(C)CC3)s2)cc1
 : 7	-4	4979	-1	6	4	11
> COc1cccc(/C=C(/CC(=O)Nc2ccc(N3CCOCC3)cc2)c2nc3ccccc3s2)c1
 : -3	1	9088	-5	0	10	3.5

# (further entries)
# Below each SMILES: ugtP null kill	PrP UTR inh	Autofluor counter	Mtb hypoxia rep	Mtb hypoxia rep growth	BJeLR viability	RN4220 kill
> CCOc1ccc(N2CSC(=S)N(c3ccc(OCC)cc3)C2)cc1
 : 3	-7	3691	3	-1	7	2.1
> COc1ccccc1OCCNC(=O)CC(NC(C)=O)c1ccccc1 (stereo unspecified)
 : 8	2	5697	4	0	3	4.5
> O=C1CCCN1CCCNC(=S)Nc1ccc(Br)cc1Cl
 : 0	-6	4418	-3	-5	7	5.0
> Cc1ccc(C)c(S(=O)(=O)N2CCN(CC(=O)N3CCc4ccccc4C3)CC2)c1
 : 3	46	2197	.	.	-4	11
> CCOC(=O)c1cnc(SCC(=O)N2CCN(C(=O)c3ccco3)CC2)nc1N
 : 0	-21	8147	-4	5	1	3.6
> CC(C)c1ccc(OCc2ccc(C(=O)N3CCN(c4ccccn4)CC3)cc2)cc1
 : -8	-20	2386	16	7	-2	8.2
> CCOC(=O)c1ccc(NC(=O)NC2CC3CCC(C2)N3)cc1 (stereo unspecified)
 : -9	-4	5542	-3	11	2	-2.4
> Cc1ccccc1-c1nnc(SCc2ccccc2)o1
 : 33	-45	10815	19	12	-5	5.8
> COC(=O)COc1ccc2c(=O)c(-c3ccccc3OC)coc2c1
 : -4	-17	4641	10	6	1	5.1
> Cc1cc(C)n(-c2cc(N3CCN(S(=O)(=O)c4ccc(C)c(C)c4)CC3)ccc2[N+](=O)[O-])n1
 : -7	-1	2797	7	-1	-1	6.8

# Single records (already shown).
# Listed for `Cc1cc(C)n(-c2cc(N3CCN(S(=O)(=O)c4ccc(C)c(C)c4)CC3)ccc2[N+](=O)[O-])n1` = ugtP null kill = -7; PrP UTR inh = -1; Autofluor counter = 2797; Mtb hypoxia rep = 7; Mtb hypoxia rep growth = -1; BJeLR viability = -1; RN4220 kill = 6.8
# Listed for `O=C(CNC(=O)c1ccco1)OCC(=O)c1ccc2ccccc2c1` = ugtP null kill = -2; PrP UTR inh = -21; Autofluor counter = 3916; Mtb hypoxia rep = 13; Mtb hypoxia rep growth = 18; BJeLR viability = -15; RN4220 kill = 3.4

# Later entries:
# Below each SMILES: ugtP null kill	PrP UTR inh	Autofluor counter	Mtb hypoxia rep	Mtb hypoxia rep growth	BJeLR viability	RN4220 kill
> CC1CCCN(C(=O)C2CCN(c3nc(-c4ccccc4)nc4c3CCC4)CC2)C1 (stereo unspecified)
 : -1	-11	5255	-9	-9	3	1.8
> CC1CCN(S(=O)(=O)c2ccc(C(=O)OC(C)C(=O)N(C)C3CCCCC3)cc2)CC1 (stereo unspecified)
 : 5	-71	5989	14	-1	-1	1.1
> CCCN1CCN(CCCNC(=O)CCN2C(=O)COc3ccccc32)CC1
 : 4	-24	5368	2	5	6	2.3
> Cc1ccc(C(=O)NCc2ccccn2)cc1Cl
 : -3	-31	2524	5	7	6	3.1
> Cc1ccccc1S(=O)(=O)Cc1ccc(C(=O)NCCN2CCN(Cc3ccccc3)CC2)o1
 : 6	-24	2829	15	8	0	5.0
> CCSc1nsc(NC(=O)Nc2cccc(OC)c2)n1
 : -28	-26	4295	-8	-3	-11	3.1
> COc1ccc(C2CC(c3ccccc3)=NN2C(=O)c2ccc(Cl)c([N+](=O)[O-])c2)cc1 (stereo unspecified)
 : 4	-8	2506	-1	5	-4	-1.6
> COC(=O)CN1C(=O)C2C(C=Cc3ccccc3)N3C(=O)CN(Cc4ccccc4)C(=O)[C@@]3(Cc3ccccc3)C2C1=O (stereo partly specified)
 : 2	.	.	0	0	.	7.2
> COc1ccc(C2NCCO2)cc1OC (stereo unspecified)
 : 3	-27	3128	4	5	5	5.3
> O=C(N/N=C/c1ccc2c(c1)OCO2)c1cc2ccccc2o1
 : .	-14	3359	.	.	3	.
> Cn1cc(/C=C/c2cc[n+](C)cc2)c2cc(Cl)ccc21
 : 8	-14	7193	35*	2.3*	41	0.7
> COc1cc(OC)c2c(-c3cccc(-c4ccc(N(C)C)cc4)c3)cc(=O)oc2c1
 : 10	29	3330	2	2	.	2.1
> CCC(C)[C@H]1CNC(=S)N1CCc1cccc2ccccc12 (stereo partly specified)
 : .	-15	3649	.	.	3	.
> CC(C)(C)c1ccc(C(=O)NCCC(=O)NNC(=O)COc2ccccc2F)cc1
 : 0	-37	3853	3	5	.	2.3
> O=[N+]([O-])c1ccc(N2CCOCC2)cn1
 : -2	-12	4695	3	0	0	0.5
> O=C(CCn1cnc2ccccc2c1=O)Nc1ccc(Cl)c(Cl)c1
 : -5	-20	9010	-9	-7	3	1.3
> CC(C)(C)NC(=O)C(c1ccc(F)cc1)N(Cc1ccco1)C(=O)c1csnn1 (stereo unspecified)
 : -5	-19	4043	-6	4	-6	-4.8
> CC12CC(NC(=O)N1c1cccc(C(=O)Nc3ncn[nH]3)c1)c1ccccc1O2 (stereo unspecified)
 : 3	-16	3858	.	.	-2	2.5
> CC(NC(=O)c1ccccc1)c1nnc(SCC(=O)Nc2nnc(C3CC3)s2)n1C (stereo unspecified)
 : 7	-17	.	4	3	-2	-1.4
> CCCN(C(=O)CCl)C1=CCCCC1
 : -2	-36	4461	.	.	-1	3.3
> COc1cccc(CN(C)CC(=O)Nc2cc3oc4ccccc4c3cc2OC)c1
 : -3	-27	5233	2	-6	2	-4.0
> O=C(COc1ccc2c3c(c(=O)oc2c1)CCC3)NCC(O)c1ccccc1 (stereo unspecified)
 : 4	2	5938	7	-6	1	-2.5
> Cc1cc(C)cc(N(C(=O)Cc2cccs2)C(C(=O)NC2CCCCC2)c2ccccn2)c1 (stereo unspecified)
 : -3	-4	23274*	7	6	8	0.4
> CC(C)Cn1c(N)c(C(=O)COC(=O)c2ccccc2Cl)c(=O)n(C)c1=O
 : -4	-4	4335	1	-3	-3	3.0
